# Screening results: PubChem, National Center for Advancing Translational Sciences (NCATS)
# gsp antag = antagonizes gsp, the McCune-Albright syndrome mutation. gsp-mutant cells, cAMP HTRF, 30 min; control for the full effect not named in the record. Potency, µM (series often up to 76.9 µM), for inactives: at the highest dose activity change, negative = inhibition, actives largely listed as inhibitors. AID 624288. 340,000 tested, 0.4% active; active = falling curve of any shape with a large fitted effect; inconclusive = falling curve, mostly with a smaller effect; inactive = flat or rising curve; cell line not stated here;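 also: intracellular cAMP measured with PDE inhibitor Ro 20-1724 present during compound exposure; potency is read from the fitted curve at half-maximal effect; % is scaled to controls: 0 for no effect and ±100 for the full control effect; nearly all actives have a fitted effect of over 65% in size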
#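 Cells, 2000/well, grown 16–24 h in DMEM 10% FBS with 0.5 mg/ml G418, then compounds plus […] (300 uM addition stock), 30 min at 37C. cAMP read by HTRF (cAMP-d2 and anti-cAMP antibody-K in lysis buffer) after 30 min RT.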
# TRPV1 potentiator = human TRPV1 potentiation. TRPV1-expressing cells, Fluo-8 calcium influx, capsaicin EC20 potentiation; host cell line not named in the record; control for the full effect not named in the record. 320,000 tested, 0.02% active. potentiation, % at 8.33 µM. Q8NER1; active means potentiation above 80%; inconclusive means 30% to 80%; inactive means below 30%; also: 0% is about no effect
# Target sequence (Q8NER1 whole entry, looked up): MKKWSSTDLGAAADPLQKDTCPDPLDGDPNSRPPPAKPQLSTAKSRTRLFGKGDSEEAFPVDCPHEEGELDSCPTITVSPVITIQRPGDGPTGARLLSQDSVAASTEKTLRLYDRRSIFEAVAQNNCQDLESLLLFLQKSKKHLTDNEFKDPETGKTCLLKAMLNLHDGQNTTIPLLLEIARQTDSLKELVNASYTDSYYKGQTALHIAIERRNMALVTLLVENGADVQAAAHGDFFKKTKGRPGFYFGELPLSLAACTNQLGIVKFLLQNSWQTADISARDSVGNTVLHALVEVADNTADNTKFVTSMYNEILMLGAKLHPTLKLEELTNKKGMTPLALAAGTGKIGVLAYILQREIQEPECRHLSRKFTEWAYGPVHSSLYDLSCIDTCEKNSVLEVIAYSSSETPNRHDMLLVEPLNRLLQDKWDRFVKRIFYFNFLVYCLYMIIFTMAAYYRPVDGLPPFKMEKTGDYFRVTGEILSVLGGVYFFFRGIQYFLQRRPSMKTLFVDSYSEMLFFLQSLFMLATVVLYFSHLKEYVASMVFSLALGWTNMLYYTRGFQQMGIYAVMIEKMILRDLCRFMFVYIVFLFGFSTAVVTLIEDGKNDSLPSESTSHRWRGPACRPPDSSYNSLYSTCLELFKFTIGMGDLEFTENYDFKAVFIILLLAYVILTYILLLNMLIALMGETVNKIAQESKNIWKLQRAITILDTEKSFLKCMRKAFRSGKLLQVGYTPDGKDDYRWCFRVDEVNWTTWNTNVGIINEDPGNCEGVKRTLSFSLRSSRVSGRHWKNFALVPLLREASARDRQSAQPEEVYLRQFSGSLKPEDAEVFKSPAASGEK
#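 TRPV1-expressing cells were cultured overnight at 35.5C and loaded with Fluo-8 calcium dye for 40 to 90 min at room temperature. After a 10 s baseline, compound was added and calcium influx was read kinetically for 3 min (ex 480/em 520 nm).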
# ClpP mod = qHTS Assay for Activators of ClpP. ATP-dependent Clp protease proteolytic subunit (Bacillus subtilis (strain 168)), P80244. purified B. subtilis ClpP, FRET peptide cleavage, 20 min. Potency, µM (highest dose often 57.5 µM), inactives show top-dose activity change, negative = active. 340,000 tested, 1.9% active. AID 651965, 2013; active = well fitted falling curve with a large enough effect; inconclusive = small, poorly fitted or top-dose-only effect; inactive = no such curve, though single readings can be large or run the other way; also: potency is read from the fitted curve at half-maximal effect; the source files actives as falling curves though it sought activators and does not explain the sign; nearly all actives have a fitted effect of over 65% in size; many hits overshoot -100%
# Target sequence (P80244 whole entry, looked up): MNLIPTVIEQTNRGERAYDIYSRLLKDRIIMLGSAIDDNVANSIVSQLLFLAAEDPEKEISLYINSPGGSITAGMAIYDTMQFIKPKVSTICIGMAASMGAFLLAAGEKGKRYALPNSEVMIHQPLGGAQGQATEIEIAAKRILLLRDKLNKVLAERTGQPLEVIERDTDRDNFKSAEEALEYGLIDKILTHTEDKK
#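 FRET quenching reversal measured ClpP activation: 10 microg/mL B. subtilis ClpP at pH 8 with the FRET-FV decapeptide, read at 430 nm after 320 nm excitation. The 20-min minus 0-min signal was scaled between DMSO/no-enzyme wells and ADEP (5.8 microM final).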
# TRPML1 blocker = blocks the human TRPML1 channel; AID 624415; 390,000 tested, 0.02% active; activity change, negative = inhibition, % (test concentration not listed); Q9GZU1; TRPML1-inducible cells, Ca2+ dye fluorescence, FDSS; active compounds read low; inhibition of EC80 agonist-evoked calcium signal; in the data active means activity change below about -50%; inconclusive means about -30% to -50%; inactive means above about -30%;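 also: stimulus is agonist 54-4 at its EC80 concentration; % is scaled to controls: 0 for no effect and ±100 for the full control effect; compound concentration not given in the record; the text of the record puts the active cut at -80%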
#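 TRPML1-DL cells, Tet-induced overnight (~16 h, 37 °C) at 1,500 cells/well, were loaded with Ca8 no-wash dye plus quencher for 45-90 min at room temperature. Compounds were pinned during FDSS kinetic reading; agonist 54-4 at EC80 (4 uM final) then added.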
# Sfp PPTase inh = Sfp phosphopantetheinyl transferase inhibition; AID 1490; Biochemical Sfp PPTase activity, qHTS; 310,000 tested, 3.5% active; Potency, µM, inactives show max response, negative = inhibition, actives largely listed as inhibitors; Q9F4F7; active = well fitted inhibition curve with a large enough effect; inconclusive = small, poorly fitted or top-dose-only effect, or another doubt; inactive = no such curve, though single readings can be large or run the other way;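 also: the enzyme is Sfp with the accession as filed and its product quenches rhodamine fluorescence; potency is read from the fitted curve at half-maximal effect; 0% = enzyme reaction without inhibitor and -100% = no enzyme wells; top concentration of the series not given in the record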
#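 With Hepes-Na pH 7.6 buffer containing 10 mM MgCl2, Sfp (15 nM) modified BHQ-2-YbbR (12.5 uM) using rhodamine-CoA (5 uM). Two reads 30 minutes apart at 525/598 nm yielded each well's rate.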
# gsp agonist = activates gsp, the McCune-Albright syndrome mutation | gsp mutant cells, cAMP HTRF, 30 min; control for the full effect not named in the record | Potency, µM (top dose mostly 76.9 µM), for inactives: at the top dose activation (cAMP increase), most hits filed as activators | 340,000 tested, 0.13% active; active = well fitted activation curve with a large enough effect; inconclusive = small, poorly fitted or top-dose-only effect, or another doubt; inactive = no such curve, though single readings can be large or run the other way; cell line not stated here;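 also: phosphodiesterase inhibitor Ro 20-1724 added with compounds to block cAMP breakdown; potency is read from the fitted curve at half-maximal effect; nearly all actives have a fitted effect of over 60% in size; about a fifth of the inactives were tested at one dose only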
#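 Cells stably selected in G418 were plated at 2000/well, grown 16-24 hr, then given compounds in DMSO with the PDE inhibitor […] (300 uM solution added) for 30 min at 37C; cAMP was read by HTRF.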
# Menin MLL FP FL = displaces fluorescein MLL peptide from human menin. Fluorescence polarization, fluorescein-MLL peptide displacement from menin. FP activity change, % at 61.4 µM. 290,000 tested, under 10 active; inconclusive = falling polarisation curve, or a change in total fluorescence; inactive = total fluorescence flat and polarisation flat or rising; no compound was filed as active; the % refers to the polarisation; negative = inhibition;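 also: % of control where 0% means no effect; inhibitors lower the polarisation; unlabelled MLL peptide was the positive control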
# * marks the source's active call; other numbers are inactive results; ? = inconclusive; / = no result given; & = joins results of further samples; [ ] = another dose, or the depositor's remark.
structure | gsp antag | TRPV1 potentiator | ClpP mod | TRPML1 blocker | Sfp PPTase inh | gsp agonist | Menin MLL FP FL
Cc1ccc(C(=O)NCCc2c[nH]c3ccccc23)s1 | -8.4% | -20.6 | / | -9.7 | 5.6% | -7.9%[15.4 µM] | /
Cc1ccccc1NC(=O)CCC(=O)N/N=C/c1c[nH]c2ccccc12 | 0.4% | 14.4 | / | -5.6 | 15.4% | 2.0%[15.4 µM] | -2.9
CC(Oc1ccc(Cl)cc1Cl)C(=O)NN=C1CCN(C)CC1 (stereo not given) | -1.5% | -5.3 | -1.6% | 5.0 | 0.0% | -1.2% | 4.5
CCCCCCC(=O)Nc1ccc(C(=O)N2CCCC2)cc1 | 6.3% | 12.2 | -0.8% | 4.3 | -11.1% | -40.6%[inhibitor] | 6.0
COc1cccc(/C=C(/C(=O)OCC(=O)NC2CCCCCCC2)c2ccccc2)c1 | -28.9% | 25.7 | -4.5% | -2.7 | -6.0% | -63.2%[inhibitor] | 8.8
COc1ccccc1CN1CCC(n2nccc2NC(=O)CCCc2ccccc2)CC1 | 2.6% | -2.5 | 1.8% | 4.7 | -0.1% | -41.6%[inhibitor] | /
Cc1ccc(C(=O)N/C(=C/c2ccco2)C(=O)NC2CCS(=O)(=O)C2)cc1 (stereo not given) | -2.1% | 0.2 | / | -6.8 | 8.1% | -1.5% | 1.9
C=CCOc1ccc(-c2nc3c(c(=O)[nH]c(=O)n3CCCC)n2C)cc1OC | -1.1% | -38.7 | / | 39.1 | 8.3% | -0.6%[15.4 µM] | 0.1
C=CCN1C(=O)/C(=C/c2ccccc2)S/C1=N/c1nccs1 | -12.5% | -1.0 | -0.8% | -0.3 | 8.8% | 22.5% | /
O=C(O)C1C2C=CC3(CN(c4cccc(C(F)(F)F)c4)C(=O)C13)O2 (stereo not given) | 6.2% | 11.0 | 0.3% | ? | 1.0% | -33.3%[inhibitor] | 0.7
O=C(c1ccc(C(=O)N2CCCCCC2)cc1)N1CCCCCC1 | -3.5% | -41.0 | -0.2% | 13.9 | -15.7% | ? | 1.3
N#Cc1nc(N2CCOCC2)nc(N2CCOCC2)n1 | 1.9%[15.4 µM] | 4.3 | -1.8%&-1.4% | 35.2 | 9.2% | 21.0% | 0.4
CCC1Oc2ccc(C)cc2N(CC(=O)NCC2COc3ccccc3O2)C1=O (stereo not given) | -12.9% | 2.6 | 3.4% | 3.4 | -15.0% | -125.0% | 1.0
O=c1oc2ccc(Cl)cc2cc1-c1ccccc1 | 7.6% | -0.9 | -16.9% | -5.3 | 7.0% | -10.7%[15.4 µM] | 6.6
COc1ccccc1-n1c(SCC(=O)N2CCOCC2)nc(O)cc1=O | 5.8% | 3.3 | 0.9% | -1.8 | -3.0% | -6.3%[15.4 µM] | 8.3
COc1ccccc1CNC(=O)CN(C)S(=O)(=O)c1ccc(Br)s1 | 0.1% | 20.1 | / | 8.9 | 12.8% | -9.1% | -1.6
COc1ccc2oc(=O)cc(C)c2c1 | 5.8% | 1.4 | ? | 25.6 | 16.6% | 3.4% | -0.2
CC(C)NC(=O)c1ccc(OC2CSC2)cc1 | 9.5% | -1.3 | -0.3% | 12.8 | 0.7% | 2.3% | 4.6
NNC(=O)CCc1c[nH]c2ccccc12 | 8.3% | -17.9 | 1.2% | 11.1 | 7.8% | 2.9% | -7.1
CCN1C(=O)CC(N2CCN(c3ccc(C(=O)c4ccncc4)cc3)CC2)C1=O (stereo not given) | -8.3% | 8.0 | -1.2% | 3.9 | -5.5% | 25.0% | 0.4
O=C(Nc1nnc(-c2ccccc2)o1)C1CCCCC1 | -6.4% | 2.5 | -5.7% | -12.9 | 21.9% | ? | 3.3
COc1ccc(CN(C)CCc2ccccn2)c(OC)c1OC | 6.2% | ? | -1.0% | -6.9 | ? | -8.3% | 5.7
Cc1nc2ccc(C(=O)O)cc2[nH]1 | 8.1% | -10.6 | -5.9% | 12.8 | 0.3% | -28.8% | 2.7
CCOC(=O)C/C(C)=N/NC(=O)Nc1ccccc1 | 20.1% | 3.7 | -4.1% | -6.5 | 4.5% | 9.1% | 4.4
CCCOc1ccc(C(=O)N2CCCc3ccccc32)cc1 | -16.4% | -7.5 | 0.1% | 1.6 | 0.3% | 29.2% | -3.7
N#Cc1cncc(C#Cc2ccccc2)c1 | -6.0% | -3.9 | / | -10.5 | 7.4% | 4.8% | 4.5
Cc1ccc(-c2nn(CCC(=O)Nc3cccnc3)c(=O)c3ccccc23)cc1 | -21.2% | -18.7 | / | -1.9 | 5.4% | 3.0%[15.4 µM] | 4.5
CCN(CC)c1nc(-c2nn[nH]n2)nc(N(CC)CC)n1 | 39.8µM* | 10.6 | -2.3% | 15.7 | 15.2% | ? | 3.6
CCOc1ccccc1-n1c(SCC(=O)N2CCCc3ccccc32)nnc1-c1cccnc1 | -13.2% | -11.3 | 1.0% | -3.5 | -2.7% | -17.1% | 0.0
O=C(c1nc2ccccn2c1CNCCOc1cccnc1)N1CCOCC1 | 10.1% | 0.8 | / | -14.6 | 17.8% | -45.8%[inhibitor] | -2.3

# Additional compounds follow.
structure | gsp antag | TRPV1 potentiator | ClpP mod | TRPML1 blocker | Sfp PPTase inh | gsp agonist | Menin MLL FP FL
Cc1ccc(/C=C2\SC(=O)N(CCNC(=O)C3CSC4(C)CCC(=O)N34)C2=O)cc1 (stereo not given) | 4.8% | 1.3 | -23.9% | 7.4 | / | -2.0%[15.4 µM] | /
CCOC(=O)Nc1ccc2c(c1)nc(CN1CCN(C(C)=O)CC1)n2C | -4.1% | -4.1 | 3.9% | 7.4 | 3.3% | -1.5% | 2.4
CCNS(=O)(=O)c1ccc(CCC(=O)Nc2ccccc2C(=O)OC)cc1 | -6.4% | 8.5 | -14.9% | 35.6 | -3.1% | 11.0% | 2.4
CC(C)C12CN3CCN(CC(C3)/C1=N\NC(=O)Nc1ccccc1)C2 | 3.2% | 2.2 | 1.6% | -6.3 | 21.1% | -4.4%[15.4 µM] | /
CCSc1ncnc2sc(C)c(C)c12 | 17.0% | 0.0 | -5.0% | -2.8 | 7.8% | -23.9% | 6.1
CC(=O)c1ccc(NC(=O)C(NC(=O)c2ccccc2)=C(C)C)cc1 | 9.1% | 4.4 | -2.1% | 0.2 | 0.9% | -53.4%[inhibitor] | 0.8
CCn1c(SC)nc2cc(S(=O)(=O)N3CCCCC3)ccc21 | 3.0% | -18.1 | 0.3% | ? | / | ? | /
O=C(COC(=O)/C=C/c1ccccc1[N+](=O)[O-])NC1CCS(=O)(=O)C1 (stereo not given) | 2.8% | 11.5 | / | -23.8 | 10.4% | 26.8%[15.4 µM] | 0.6
CN(C(=O)C1CCN(S(=O)(=O)c2cccc3nonc23)CC1)C1CCCCC1 | 5.5% | -10.8 | -1.0% | 2.0 | 9.5% | -2.8% | 0.6
Cc1cccc(NC(=O)CNC(=O)Cc2ccc3c(c2)OCCO3)c1C | 1.8% | 2.4 | -1.4% | 12.1 | / | -35.4%[inhibitor] | /
Cc1c(OCC(=O)N2CCC(C(=O)O)CC2)ccc2c3c(c(=O)oc12)CCCC3 | -1.5% | 4.7 | 4.2% | / | 13.7% | / | -3.5
CC1(c2ccc([N+](=O)[O-])cc2)NC(=O)N(CC(=O)Nc2cccnc2Cl)C1=O (stereo not given) | 6.5% | 6.6 | -1.0% | -11.4 | / | 2.6% | /
Cc1cc(OC(C)C(=O)NNC(=O)Nc2ccc(F)cc2F)cc(C)c1Cl (stereo not given) | -0.6% | 12.4 | -1.4% | -0.3 | -16.7% | -13.2% | 0.2
CC(CCc1ccccc1)NC(=O)[C@@H]1Cc2ccccc2CN1 (stereo not given in full) | 7.2% | -8.9 | -5.7% | -0.6 | 0.7% | 9.9% | 5.2
COc1cccc(NC(=O)C(C)SCc2ccccc2)c1 (stereo not given) | 0.1% | 0.9 | / | 1.9 | 20.6% | ? | -0.4
CC(C)NC(=O)N(C)C[C@H]1Oc2c(NC(=O)Nc3ccc(C(F)(F)F)cc3)cccc2C(=O)N([C@H](C)CO)C[C@@H]1C | -6.4% | / | -0.9% | -1.6 | / | / | /
COC(=O)C1CN(C(=O)COc2ccc(Cl)cc2Cl)c2ccccc2O1 (stereo not given) | -15.0% | 3.7 | -0.3% | / | -4.5% | -38.8%[inhibitor] | -7.7
CC(=O)Nc1ccccc1N(C)S(=O)(=O)c1ccc(C)cc1 | -0.1% | 16.8 | 0.1% | -9.0 | -5.4% | -4.2% | 6.9
Cc1ccc(Cl)cc1NC(=O)CCN1C(=O)C2C3CCC(C3)C2C1=O (stereo not given) | 3.3% | -6.6 | 0.3% | -17.3 | 13.6% | ? | 0.2
COc1ccc(OC)c(/C=N/NC(=O)C(=O)N2CCCC2)c1 | -3.1% | 1.6 | / | 3.1 | 7.6% | -32.2%[inhibitor] | -5.7
O=C(CNc1ccc(Br)cc1)NNC1=NCCC1 | 7.6% | -6.2 | -1.2% | -5.6 | -3.9% | -3.2% | 0.8
O=C(Nc1c2c(nn1-c1ccccc1)CS(=O)(=O)C2)C1CC1 | / | / | -0.9% | -4.6 | / | -7.2% | /
O=[N+]([O-])c1ccccc1CNCCO | 2.0% | -22.5 | -1.6% | -4.4 | / | / | /
CC(=O)Nc1c2c(nn1-c1ccccc1)CSC2 | 1.3% | 7.3 | -1.2% | 7.3 | 12.8% | 1.1% | 1.4

# Structures shown so far containing a nitro group on carbon:
structure | gsp antag | TRPV1 potentiator | ClpP mod | TRPML1 blocker | Sfp PPTase inh | gsp agonist | Menin MLL FP FL
O=C(COC(=O)/C=C/c1ccccc1[N+](=O)[O-])NC1CCS(=O)(=O)C1 (stereo not given) | 2.8% | 11.5 | / | -23.8 | 10.4% | 26.8%[15.4 µM] | 0.6
CC1(c2ccc([N+](=O)[O-])cc2)NC(=O)N(CC(=O)Nc2cccnc2Cl)C1=O (stereo not given) | 6.5% | 6.6 | -1.0% | -11.4 | / | 2.6% | /
O=[N+]([O-])c1ccccc1CNCCO | 2.0% | -22.5 | -1.6% | -4.4 | / | / | /
